NOMO-1 viab: NOMO-1 AML cell viability reduction, primary screen, STK33 inhibitor project, CellTiter-Glo luminescence. NOMO-1 AML viability, 72 h. AID 2330, 2010. hit rate 7.5% among 37,000. inhibition, % (no concentration beside the values);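 active = most replicates above 80%; inconclusive = exactly half above 80%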;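 note: wells of about 30 µL received 25 nL stock; 0% = median of vehicle wells and 100% = reference inhibitor level; the first replicate is given; inactives centre near 10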
* hit, by the source's call; ? = inconclusive. This is a subset; rates above refer to the full screens.

SMILES	NOMO-1 viab
CC(C)NC(=O)N(C)C[C@H]1Oc2c(NS(C)(=O)=O)cccc2C(=O)N([C@@H](C)CO)C[C@@H]1C	24.9
C[C@@H]1CN([C@@H](C)CO)C(=O)c2cccc(NC(=O)C3CCCCC3)c2O[C@H]1CN(C)CC1CCCCC1	95.3*
Cc1noc(C)c1S(=O)(=O)Nc1ccc2c(c1)C(=O)N([C@H](C)CO)C[C@H](C)[C@H](CN(C)S(=O)(=O)c1cn(C)cn1)OCCCC[C@@H](C)O2	28.0
COc1ccccc1OCCCSc1nc(-c2ccccc2)cc(=O)[nH]1	7.7
Cc1ccc(S(=O)(=O)Nc2ccc3c(c2)CC(=O)N([C@@H](C)CO)C[C@H](C)[C@@H](CN(C)CC2CCCCC2)O3)cc1	?
CCOc1ccc(NC(=O)c2ccc(NS(=O)(=O)c3cccc4cccnc34)cc2)cc1	27.7
C[C@H](CO)N1C[C@H](C)[C@H](CN(C)Cc2ccc(Oc3ccccc3)cc2)Oc2ccc(NC(=O)CCN3CCOCC3)cc2C1=O	21.9
Cc1nnc(SCC(=O)N2CCC(c3noc4ccc(F)cc34)CC2)s1	34.3
C[C@@H]1CN([C@H](C)CO)C(=O)c2cccc(NS(=O)(=O)c3cn(C)cn3)c2O[C@@H]1CN(C)Cc1ccc(C(=O)Nc2ccccc2N)cc1	30.0
Cc1noc(C)c1NC(=O)N(C)C[C@H]1Oc2c(NC(=O)c3cnccn3)cccc2C(=O)N([C@H](C)CO)C[C@H]1C	7.9
CNC[C@@H]1Oc2ccc(NS(=O)(=O)c3cn(C)cn3)cc2C(=O)N([C@@H](C)CO)C[C@@H]1C	-0.4
Cc1c(CC(=O)O)c(=O)oc2c(C)c(OCC(=O)O)ccc12	24.5
COc1ccc(NC(=O)CSc2nnc3sc4ccccc4n23)cc1	-12.6
COc1cc(O)c2c(=O)c(OC)c(-c3ccc(OC)c(OC)c3)oc2c1	30.6
C[C@H](CO)N1C[C@H](C)[C@H](CN(C)CC2CC2)Oc2ccc(NC(=O)Cc3cn(C)c4ccccc34)cc2CC1=O	6.0
C[C@H](CO)N1C[C@H](C)[C@H](CN(C)S(=O)(=O)c2cccs2)Oc2ccc(NC(=O)Nc3ccc(C(F)(F)F)cc3)cc2CC1=O	123.3*
O=C(Nc1cccc(NC(=O)c2c(F)cccc2F)n1)c1c(F)cccc1F	13.7
Cc1ccc(-c2cn3c4c(sc3n2)CCCC4)cc1	26.9
CS(=O)(=O)N(CC(=O)Nc1ccccc1-c1ccccc1)c1ccc(F)cc1	19.6
O=C1c2ccccc2CN1CCSC(=S)N1CCSCC1	0.4
O=C(Nc1scc2c1c(=O)oc1ccccc12)c1ccccc1	36.7
Cc1noc(C)c1S(=O)(=O)Nc1cccc2c1O[C@H](CN(C)S(C)(=O)=O)[C@H](C)CN([C@@H](C)CO)C2=O	3.0
CCN1C(=O)/C(=C2\SC(=S)N(c3ccc(OC)cc3)C2=O)c2ccccc21	65.8
COc1ccc(NC(=O)N(C)C[C@@H]2Oc3c(NC(=O)Nc4cccc5ccccc45)cccc3C(=O)N([C@@H](C)CO)C[C@@H]2C)cc1	53.5
C[C@@H]1CN([C@H](C)CO)C(=O)c2cccc(NC(=O)c3cnccn3)c2O[C@@H]1CN(C)C(=O)Nc1cccc2ccccc12	6.9
COc1ccc(NC(=O)N(C)C[C@H]2Oc3ccc(NS(C)(=O)=O)cc3CC(=O)N([C@@H](C)CO)C[C@@H]2C)cc1	25.9
COc1ccc(NC(=O)CN(C)S(=O)(=O)c2cc(Cl)ccc2Cl)cc1OC	1.9
O=C1CC(C2CCCO2)C(=O)N1c1cccc(C(F)(F)F)c1 (configuration not stated)	3.1
C[C@@H]1CN([C@@H](C)CO)C(=O)Cc2cc(NS(=O)(=O)c3ccccc3)ccc2O[C@@H]1CN(C)C(=O)Nc1ccccc1	6.4
O=c1cc(CSc2ccc(Cl)cc2)c2ccc(O)cc2o1	25.2

7 entries already listed, ordered by number of heavy atoms, highest first.
SMILES	NOMO-1 viab
C[C@H](CO)N1C[C@H](C)[C@H](CN(C)S(=O)(=O)c2cccs2)Oc2ccc(NC(=O)Nc3ccc(C(F)(F)F)cc3)cc2CC1=O	123.3*
C[C@@H]1CN([C@H](C)CO)C(=O)c2cccc(NC(=O)c3cnccn3)c2O[C@@H]1CN(C)C(=O)Nc1cccc2ccccc12	6.9
COc1ccc(NC(=O)N(C)C[C@H]2Oc3ccc(NS(C)(=O)=O)cc3CC(=O)N([C@@H](C)CO)C[C@@H]2C)cc1	25.9
O=C(Nc1cccc(NC(=O)c2c(F)cccc2F)n1)c1c(F)cccc1F	13.7
CCN1C(=O)/C(=C2\SC(=S)N(c3ccc(OC)cc3)C2=O)c2ccccc21	65.8
O=C(Nc1scc2c1c(=O)oc1ccccc12)c1ccccc1	36.7
Cc1ccc(-c2cn3c4c(sc3n2)CCCC4)cc1	26.9

Further compounds follow:
SMILES	NOMO-1 viab
CCc1ccccc1NC(=O)CSc1nc2ccc(C(=O)c3ccccc3)cc2[nH]1	11.7
C[C@H]1CN([C@@H](C)CO)C(=O)c2cc(NC(=O)Nc3ccc4c(c3)OCO4)ccc2O[C@H]1CN(C)S(=O)(=O)c1ccc(F)cc1	18.9
C[C@@H]1CN([C@@H](C)CO)C(=O)c2cccc(NC(=O)NC3CCCCC3)c2O[C@H]1CN(C)CC1CC1	25.2
CC(C)NC(=O)Nc1ccc2c(c1)CC(=O)N([C@H](C)CO)C[C@@H](C)[C@@H](CN(C)Cc1ccc(Oc3ccccc3)cc1)O2	55.6
C[C@H](CO)N1C[C@H](C)[C@@H](CN(C)C(=O)Nc2ccc(F)cc2)Oc2c(NC(=O)c3ccncc3)cccc2C1=O	-8.0
CN(C)c1cc[n+](C(=O)N2CCOCC2)cc1	22.2
O=c1[nH]c2cc(Cl)c(Cl)cc2[nH]c1=O	13.7
Cc1noc(C)c1S(=O)(=O)Nc1ccc2c(c1)CC(=O)N([C@H](C)CO)C[C@@H](C)[C@H](CN(C)Cc1ccncc1)O2	-1.9
O=C(O)CSc1nnc(-c2cccs2)n1-c1cccc(C(F)(F)F)c1	11.2
CCN=C(Nc1ccc(C(C)(C)C)cc1)SCC1CC1	-1.5
CC(C)NC(=O)Nc1ccc2c(c1)CC(=O)N([C@@H](C)CO)C[C@H](C)[C@H](CN(C)S(=O)(=O)c1ccc(F)cc1)O2	20.6
C[C@@H]1CCCCO[C@@H](CN(C)CC2CCCCC2)[C@@H](C)CN([C@H](C)CO)C(=O)c2cc(NC(=O)Cc3ccccc3)ccc2O1	12.4
CCOC(=O)c1[nH]c2ccc(OCC)cc2c1CCCN1C(=O)c2ccccc2C1=O	20.8
COc1ccc(S(=O)(=O)N(C)C[C@H]2Oc3ccc(NS(=O)(=O)c4ccc(F)cc4)cc3CC(=O)N([C@H](C)CO)C[C@H]2C)cc1	19.0
C[C@@H]1CN([C@H](C)CO)C(=O)c2cc(NC(=O)CCC(F)(F)F)ccc2O[C@H]1CN(C)Cc1ccc(Oc2ccccc2)cc1	85.1*

The list goes on, starting with the last two of the part before.
SMILES	NOMO-1 viab
COc1ccc(S(=O)(=O)N(C)C[C@H]2Oc3ccc(NS(=O)(=O)c4ccc(F)cc4)cc3CC(=O)N([C@H](C)CO)C[C@H]2C)cc1	19.0
C[C@@H]1CN([C@H](C)CO)C(=O)c2cc(NC(=O)CCC(F)(F)F)ccc2O[C@H]1CN(C)Cc1ccc(Oc2ccccc2)cc1	85.1*
C[C@H]1CN([C@@H](C)CO)C(=O)c2cccc(NS(=O)(=O)c3ccc(F)cc3)c2O[C@H]1CN(C)C(=O)NC1CCCCC1	15.9
C[C@@H]1CN([C@H](C)CO)C(=O)Cc2cc(NS(=O)(=O)c3ccc(F)cc3)ccc2O[C@H]1CN(C)S(=O)(=O)c1cccs1	8.2
O=C1C(=O)N(CCc2ccccc2)C(c2ccco2)C1C(=O)c1cc2ccccc2o1 (configuration not stated)	-4.3
C[C@H](CO)N1C[C@H](C)[C@H](CN(C)C(=O)Nc2ccccc2)Oc2ccc(NS(C)(=O)=O)cc2C1=O	-20.2
CCOC(=O)c1cnc2c(C)cc(Cl)cc2c1NCCN1CCOCC1	14.7
Cc1cc(C)c(NC(=O)CSc2nncc3ccccc23)c([N+](=O)[O-])c1	5.2
Cc1ccc2c(CC(=O)NCc3ccco3)coc2c1C	114.9*
COc1ccc(S(=O)(=O)Nc2cccc3c2O[C@H](CN(C)C(=O)Nc2cccc4ccccc24)[C@@H](C)CN([C@@H](C)CO)C3=O)cc1	-2.2
COc1ccc(CN(C)C[C@H]2OCCCC[C@@H](C)Oc3ccc(NS(=O)(=O)c4cn(C)cn4)cc3C(=O)N([C@H](C)CO)C[C@@H]2C)cc1	43.4
Cc1ccc(S(=O)(=O)Nc2ccc3c(c2)C(=O)N([C@@H](C)CO)C[C@@H](C)[C@@H](CN(C)CC2CC2)O3)cc1	12.4
C[C@@H]1CN([C@H](C)CO)C(=O)Cc2cc(NC(=O)NC3CCCCC3)ccc2O[C@H]1CN(C)Cc1ccc(C(=O)Nc2ccccc2N)cc1	16.2
C[C@H](CO)N1C[C@H](C)[C@@H](CN(C)Cc2ccccc2)Oc2c(NC(=O)Nc3ccc(C(F)(F)F)cc3)cccc2C1=O	115.2*
Cc1ccc(S(=O)(=O)CCC(=O)Nc2cccc(Cl)c2)cc1	-1.0
COC(=O)c1ccccc1NC(=O)CNC(=O)c1cccs1	-25.4
CC1(C)Oc2ccc3ccc(=O)oc3c2[C@@H](O)[C@H]1O[C@@H]1O[C@H](CO)[C@@H](O)[C@H](O)[C@H]1O	3.7
C[C@H]1CN([C@@H](C)CO)C(=O)Cc2cc(NC(=O)Nc3cccc4ccccc34)ccc2O[C@@H]1CN(C)C(=O)NC1CCCCC1	3.1
Cc1cccc(-c2nnc(SCC(=O)c3ccccc3)n2-c2ccccc2)c1	1.5
C[C@H](CO)N1C[C@H](C)[C@H](CN(C)C(=O)Nc2ccc3c(c2)OCO3)Oc2ccc(N(C)C)cc2CC1=O	6.0
C[C@H]1CN([C@@H](C)CO)C(=O)c2cccc(NC(=O)Nc3cccc4ccccc34)c2O[C@H]1CN(C)Cc1ccc(Cl)c(Cl)c1	?
C[C@H](CO)N1C[C@H](C)[C@H](CN(C)Cc2ccccc2)Oc2c(NS(=O)(=O)c3ccc(F)cc3)cccc2C1=O	4.9
C[C@@H]1CCCCO[C@@H](CN(C)Cc2ccncc2)[C@@H](C)CN([C@H](C)CO)C(=O)c2cc(NC(=O)Nc3cccc4ccccc34)ccc2O1	-0.7
CCOc1cc(S(=O)(=O)NCc2cccnc2)c(C)cc1C	5.6
Cc1noc(C)c1NC(=O)Nc1ccc2c(c1)C(=O)N([C@H](C)CO)C[C@H](C)[C@H](CN(C)Cc1ccncc1)OCCCC[C@@H](C)O2	24.9
C[C@@H]1CN([C@@H](C)CO)C(=O)Cc2cc(NC(=O)Nc3ccc(F)cc3)ccc2O[C@@H]1CN(C)S(=O)(=O)c1ccc(Cl)cc1	19.4
Cc1ccc(S(=O)(=O)N(C)C[C@@H]2Oc3ccc(NC(=O)CCCCCC(=O)Nc4ccccc4N)cc3CC(=O)N([C@@H](C)CO)C[C@@H]2C)cc1	62.7
CCOC(=O)c1nnn(-c2nonc2-n2cccc2)c1C	20.3
C[C@H](CO)N1C[C@H](C)[C@@H](CN(C)C(=O)Nc2cccc3ccccc23)Oc2ccc(NC(=O)c3ccncc3)cc2C1=O	1.2
COc1ccc(CN(C)C[C@@H]2Oc3c(NC(=O)Nc4ccc(F)cc4)cccc3C(=O)N([C@@H](C)CO)C[C@@H]2C)cc1	31.0
Cc1ccc(S(=O)(=O)NCCSc2nnc(Nc3ccccc3)s2)cc1	46.3
CCCCN1C(=O)C(O)(CC(=O)c2ccco2)c2ccccc21 (configuration not stated)	119.3*
C[C@@H]1CN([C@@H](C)CO)C(=O)c2cc(NS(=O)(=O)c3cn(C)cn3)ccc2O[C@H]1CN(C)Cc1ccccc1	2.5
C[C@H]1CN([C@@H](C)CO)C(=O)c2cccc(NC(=O)Nc3ccc4c(c3)OCO4)c2O[C@@H]1CN(C)Cc1ccc(C(=O)O)cc1	25.4
COc1ccccc1Nc1nc(N)nc(CN(C)C2CCCCC2)n1	0.7
COc1ccc(NC(=O)N(C)C[C@@H]2Oc3ccc(NS(=O)(=O)c4c(C)noc4C)cc3CC(=O)N([C@H](C)CO)C[C@@H]2C)cc1	18.1
C[C@H]1CN([C@@H](C)CO)C(=O)Cc2cc(N(C)C)ccc2O[C@@H]1CN(C)Cc1ccc(C(=O)Nc2ccccc2N)cc1	139.5*
CCOc1ccc(S(=O)(=O)NCc2ccccn2)cc1	-14.0
C[C@@H]1CN([C@H](C)CO)C(=O)c2cc(NC(=O)Nc3ccc4c(c3)OCO4)ccc2O[C@@H]1CN(C)Cc1ccccc1	17.5
C[C@@H]1CN([C@H](C)CO)C(=O)c2cc(NC(=O)c3ccncc3)ccc2O[C@@H]1CN(C)S(=O)(=O)c1ccccc1	17.0
CCNc1nc(NCC)nc(OCC#N)n1	55.0
COc1ccc(S(=O)(=O)N(C)C[C@H]2Oc3ccc(NC(=O)C4CCCCC4)cc3C(=O)N([C@@H](C)CO)C[C@H]2C)cc1	16.0
O=C(CSc1n[nH]c(-c2ccccc2)n1)Nc1cccc(C(F)(F)F)c1	24.2
CC(C)NC(=O)N(C)C[C@@H]1Oc2ccc(NC(=O)CCCN(C)C)cc2CC(=O)N([C@H](C)CO)C[C@@H]1C	9.3
CNC[C@H]1Oc2ccc(NC(=O)C3CCCCC3)cc2CC(=O)N([C@H](C)CO)C[C@H]1C	24.0
Cc1noc(C)c1NC(=O)Nc1ccc2c(c1)C(=O)N([C@H](C)CO)C[C@H](C)[C@@H](CN(C)S(=O)(=O)c1c(C)noc1C)OCCCC[C@@H](C)O2	-3.3
C[C@H](CO)N1C[C@H](C)[C@@H](CN(C)S(=O)(=O)c2cccs2)Oc2c(NS(=O)(=O)c3ccc(Cl)cc3)cccc2C1=O	8.3
C[C@@H]1CN([C@H](C)CO)C(=O)Cc2cc(NC(=O)Nc3ccccc3)ccc2O[C@@H]1CN(C)C(=O)NC1CCCCC1	11.1
O=C(Nc1ccc(-c2ccccc2)cc1)C1CC1c1ccccc1 (configuration not stated)	32.0
C[C@@H]1CCCCO[C@@H](CN(C)CC2CCCCC2)[C@@H](C)CN([C@H](C)CO)C(=O)c2cc(NC(=O)c3ccccc3)ccc2O1	116.8*

Assay outcomes deposited in PubChem by Broad Institute.
